NPYLR7 ag = mosquito NPYLR7 agonism; hit rate 0.15% among 270,000; activation, % at 10 µM; HEK293T NPYLR7/Galpha15, GCaMP6s calcium fluorescence; in the data active = activation above about 40%;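 also: 0% = vehicle and 100% = reference agonist at the receptor; some compounds past the cut are filed as inactive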
NPYLR7 ag max-min = further read-out of NPYLR7 ag, marked with its call; activation, %; measured here: Max-Min RFU normalised activation; some inactives read as strong as hits;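 span of the calcium signal over five minutes; 0% = vehicle and 100% = native peptide agonist; compound fluorescence can raise it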
Active calls of the source: *; & = joins results of further samples. An excerpt; rates above refer to the full screens.

compound,NPYLR7 ag max-min,NPYLR7 ag
COc1cccc(CNC(=O)c2c(C)noc2-c2ccccc2C)c1,11,25
CCOc1nc2ccccc2nc1N1CCC(C(N)=O)CC1,-5,4
CCOC(=O)c1c(NC(=O)C2COc3ccccc3O2)c(-c2ccc(OC)cc2)cn1Cc1ccccc1 (stereo not drawn),1,8
CC(C)c1n[nH]c2c1CN(C(=O)c1ccc(C#CC(C)(C)O)o1)CC2,10,14
CC(=O)Nc1ccccc1C(=O)N1CCN(c2ccc(F)cc2)CC1,-2,0
CC(C)Nc1nc(NCCO)nc(N2CCOCC2)n1,-11,-6
CNc1ccccc1C(C)(C)c1cc(-c2cccs2)n[nH]1,1,2
COCC(NC1CCC2(CCNCC2)CC1)c1ccnn1C (stereo not drawn),1,2
c1ccc2c(c1)-c1ccccc1C2N1CCOCC1,13,1
O=C(NNC(=O)C1CCC1)c1sc2ccccc2c1Cl,9,2
O=C(NCc1ccc(-n2cncn2)cc1)c1cccc2c1OCC2,8,16
CCc1nc(N(CCC(=O)Nc2cccc(C(F)(F)F)c2)Cc2ccccc2)c2ccc(Cl)cc2n1,10,4

Continuation.
compound,NPYLR7 ag max-min,NPYLR7 ag
Cc1cc(C)c2[nH]c(=O)c(-c3[nH]cnc3-c3ccccc3)cc2c1,13,30
CN(CC(=O)NC(C)(C)C)CC1(O)CCCC1,-6,0
CCOc1cn(C)c(C(=O)Nc2ccc3c(c2)OCO3)cc1=O,2,5
Cc1c(C=C2CC(C)CC(=Cc3cc(C#N)n(C)c3C)C2=O)cc(C#N)n1C (stereo not drawn),-3,0
CC1CC(C)CN(CCCNC(=O)c2c(O)nc3sccn3c2=O)C1 (stereo not drawn),4,-1
CCOc1cccc(CO)n1,-3,-1
O=C(N[C@H](Cc1ccccc1)C(=O)N1CCC(C(=O)N2CCOCC2)CC1)c1cccnc1Oc1ccc(Cl)cc1,-4,1
O=S(=O)(N1CCOCC1)N1CCC(c2cccc3ccccc23)CC1,-2,-7
O=C(Cn1ccn2nc(-c3ccccc3)cc2c1=O)NCc1ccccc1Cl,7,9
CCC1CCC(NC(C)c2ccc(F)cc2)CC1 (stereo not drawn),4,5
CCC(C)N(Cc1ccc(OC)c(OS(=O)(=O)c2ccc(F)cc2)c1)C(=O)Nc1ccc(OC)cc1OC (stereo not drawn),-11,-15
Nc1ccc(-c2n[nH]c(=O)c3ccccc23)cc1N,2,3

Quoted from above (2 entries):
compound,NPYLR7 ag max-min,NPYLR7 ag
CCC(C)N(Cc1ccc(OC)c(OS(=O)(=O)c2ccc(F)cc2)c1)C(=O)Nc1ccc(OC)cc1OC (stereo not drawn),-11,-15
Nc1ccc(-c2n[nH]c(=O)c3ccccc23)cc1N,2,3

Next part
compound,NPYLR7 ag max-min,NPYLR7 ag
CN(CCCc1nccn1C)Cc1cc2n(n1)CCNC2,7,10
O=C(Nc1ccc(SCc2ccccn2)nn1)c1ccco1,2,11
Cc1ccc(CN2CCN(N=Cc3ccc(F)cc3)CC2)c(C)c1,-5,-1
CCN(Cc1ccccc1)C(=O)C1CCN(S(=O)(=O)c2ccc3c(c2)OCCCO3)CC1,8,10
CC(C)Cc1cc(C(=O)NC(Cn2ccnc2)c2ccccc2)n(C)n1 (stereo not drawn),-1,1
CNC(=O)CNS(=O)(=O)c1cc(Cl)cc(Cl)c1,-5,-2
Cn1cc([N+](=O)[O-])c(C(=O)NCc2ccccc2)n1,-5,-2
CC(C)c1ccc2nc(-c3ccc(CN4C(=O)CNC4=O)cc3)[nH]c(=O)c2c1,-10,-10
CN(Cc1nc(-c2ccccc2)no1)Cc1cnc(N2CCOCC2)s1,1,2
CC(=O)Nc1ccc(S(=O)(=O)N2CCN(Cc3cc(=O)c(OCc4ccc(C(F)(F)F)cc4)co3)CC2)cc1,1,-4
COc1ccc(-c2ccc(=O)n(Cc3ccc(Cl)cc3)n2)cc1OC,2,11
CCOc1ccc(NC(=O)N(CC)C(CC)c2ccncc2)c(C)c1 (stereo not drawn),-3,-2

An excerpt from above in order of formula weight, low to high:
compound,NPYLR7 ag max-min,NPYLR7 ag
CNC(=O)CNS(=O)(=O)c1cc(Cl)cc(Cl)c1,-5,-2
O=C(Nc1ccc(SCc2ccccn2)nn1)c1ccco1,2,11
Cc1ccc(CN2CCN(N=Cc3ccc(F)cc3)CC2)c(C)c1,-5,-1
CCOc1ccc(NC(=O)N(CC)C(CC)c2ccncc2)c(C)c1 (stereo not drawn),-3,-2
CN(Cc1nc(-c2ccccc2)no1)Cc1cnc(N2CCOCC2)s1,1,2
CC(=O)Nc1ccc(S(=O)(=O)N2CCN(Cc3cc(=O)c(OCc4ccc(C(F)(F)F)cc4)co3)CC2)cc1,1,-4

Following part
compound,NPYLR7 ag max-min,NPYLR7 ag
COc1ccc(/C=C/C(=O)NCC(=O)N=Nc2c(O)[nH]c3ccc([N+](=O)[O-])cc23)cc1,-10,-10
CCOC(=O)N1CCN(c2nc(Nc3ccc(C)c(C)c3)c3nccnc3n2)CC1,2,1
Cc1ccc(N2CCN(C(=O)c3ccc(Cl)cc3)C(C)C2=O)cc1F (stereo not drawn),7,-9
CC1CN(C(=O)c2csc(CSc3nnc(-c4cccnc4)n3-c3ccccc3F)n2)CC(C)O1 (stereo not drawn),1,-5
c1ccc(-c2cc3c(ccc4nonc43)nn2)cc1,-2,1
Oc1ccccc1N1CCN(CCN2CCCc3ccccc32)CC1,6,8
O=C1C(=O)N(CC(=O)N(C2=CCCCC2)C2CC2)C(=O)N1CCC1=CCCCC1,1,3
Cc1cc(NC(=O)CN(C)Cc2ccc(-c3ccc(Cl)cc3)o2)no1,-6,-3
CCC(c1ccncc1)n1ccnc1-c1ccc(OC)cc1OC (stereo not drawn),-2,-5
COc1cc(OC)cc(C(=O)N2CCN(c3nc(Cc4ccccc4)nc4c3c(C)nn4-c3ccc(F)cc3)CC2)c1,7,2
Nc1nnc(-c2ccncc2)s1,7,8
CCCn1c(SC(C)c2ccc(F)cc2)n[nH]c1=O (stereo not drawn),-4,-2

(next part)
compound,NPYLR7 ag max-min,NPYLR7 ag
CCOc1ccccc1CN1CCCC(CCC(=O)Nc2cc(Cl)ccc2OC)C1 (stereo not drawn),1,3
Cc1cccc(OS(=O)(=O)c2cn(C)c(=O)n(C)c2=O)c1,0,2
CC(=O)c1cc(CN2CCC(C(=O)Nc3cccc(-c4cscn4)c3)CC2)cs1,-8,-5
COc1ccc(NC(=O)N2CCN(C(C(=O)NCc3ccc4c(c3)OCO4)C3CCCC3)CC2)cc1 (stereo not drawn),-9,-7
Cc1cc(C)c2[nH]c(C)c(CC(=O)N3CCC4(CC3)NCCNC4=O)c2c1,4,4
COc1cc(OC)c(OC)cc1CN1CCOc2ccc(CN3C[C@@H](C)O[C@@H](C)C3)cc2C1,2,4
COc1ccc(-c2nnc(-c3cc4c(ccc5ccccc54)oc3=O)o2)cc1,-8,-4
O=C(CCc1nc2ccccc2[nH]c1=O)N1CCC2(CCCO2)CC1,4,6
COc1ccc(-c2csc(SC3C(=O)N(c4ccccc4)N=C3C)n2)cc1 (stereo not drawn),10,4
CCOc1ccccc1NC(=O)N(CC(=O)N(CCc1c[nH]c2ccccc12)Cc1ccc(C)cc1)C(C)C,-6,2
O=C(C1CCCC1)N(Cc1ccc(C(F)(F)F)cc1)CC1CC(c2ccc(Cl)c(Cl)c2)=NO1 (stereo not drawn),18,6
O=C(C1CCCC1)N(Cc1ccccc1Cl)CC1CC(c2cccc(F)c2)=NO1 (stereo not drawn),19,17

Other records follow:
compound,NPYLR7 ag max-min,NPYLR7 ag
O=C(Cc1ccc2c(c1)OCO2)N1CCC(n2nc(-c3ccccc3)cc2-c2ccccc2)CC1,-1,-2
COc1ccc(C)cc1-c1n[nH]c(C2CC2)n1,5,4
O=C(Cc1ccc(O)c(F)c1)N1CCC2(CCNCC2)CC1,-4,-4
CCOC(=O)CCCC(=O)N1CCN(Cc2cc(=O)c(OCc3ccc(-c4ccccc4C#N)cc3)co2)CC1,6,5
Cc1ccn2c(=O)nc(SCc3ccc(Cl)cc3)nc2c1,3,3
O=S(=O)(C=Cc1ccc(Cl)cc1)N1CCCC1c1ccc2c(c1)OCCO2 (stereo not drawn),-3,-1
O=C(NCCCOc1cccc([N+](=O)[O-])c1)c1cccc(Br)c1,-8,-3
O=C(c1ccc(Cl)cc1)N(CCN1CCOCC1)Cc1nccn1Cc1ccccc1C(F)(F)F,17,8
CC(SCc1nc(N)c2ccccc2n1)C(=O)N(C)C (stereo not drawn),0,1
CC(=O)c1ccc(Cl)c(S(=O)(=O)NC(=O)C2CC2c2cc(F)ccc2F)c1 (stereo not drawn),-5,-5
COc1ccccc1CN(Cc1ccco1)CC(O)COCc1ccccc1 (stereo not drawn),18,15
O=C(Nc1ccc(Br)cc1-c1nc2ccccc2[nH]c1=O)C(F)(F)F,-10,-9

(further entries)
compound,NPYLR7 ag max-min,NPYLR7 ag
COCCN1C(=O)NC(c2ccc(Br)cc2)C(C(=O)OC)=C1C (stereo not drawn),10,13
CC(C)CN(CC(=O)N1CC(=O)N(c2ccc(F)cc2)C1)C(=O)Nc1c(C(C)C)cccc1C(C)C,11,0
CCOc1ccc(CN(Cc2ccc3c(c2)OCO3)Cc2nc(C(=O)NCC3CC3)co2)cc1,31,29
CC(C(=O)N1CCC(c2ccc(F)cc2)CC1)c1cccc(C(=O)c2ccccc2)c1 (stereo not drawn),-13,-2
COc1ccccc1C(=O)N1CCN(c2ccc(F)cc2)C(=O)C1C (stereo not drawn),6,5
CCOc1ccc(-c2ccc(=O)n(CCCC(=O)Nc3c(C)cc(C)cc3C)n2)cc1,-9,-6
CCc1cc(C(=O)NCc2c(C)ncc3c2CCN(C(=O)/C=C/c2cccs2)C3)no1,15,36
Cc1ccccc1CN(CCC(C)C)CC(O)COCc1ccccc1 (stereo not drawn),10,15
CCN(CC)C(=O)Oc1ccc2c(ccn2Cc2ccccc2Cl)c1NC(=O)c1ccc([N+](=O)[O-])o1,0,6
C(=N/Nc1nc2ccccc2[nH]1)/c1ccc(N2CCOCC2)s1,4,7
CC(=O)C(C)n1c(=O)c2c(nc3n(-c4cc(C)cc(C)c4)c(-c4ccccc4)cn23)n(C)c1=O (stereo not drawn),-1,1
N#Cc1ccccc1CSc1n[nH]c(C2CCCC2)n1,5,5

(cont.)
compound,NPYLR7 ag max-min,NPYLR7 ag
CC(C)C(=O)N1CCC1(C)C(=O)Nc1cccc(-n2cncn2)c1 (stereo not drawn),-1,-3
CCOC(=O)C1(Cc2cccc(OC)c2)CCN(Cc2ccc(C(=O)OC)cc2)CC1,8,11
COc1ccc(OCCN2CCC(C(=O)NC(c3ccc(F)cc3)c3ncccc3C)CC2)cc1 (stereo not drawn),10,7
CN(Cc1ccc(-c2nc(-c3ccncc3)cc(=O)[nH]2)cc1)Cc1ccoc1,-2,-1
Cc1ccc(-c2nnn(CC(=O)N3CCOCC3)n2)cc1,12,22
O=C(Cn1cnc2c(nnn2Cc2ccc(F)cc2)c1=O)NCc1ccc(F)cc1,14,10
CCc1cccc(C)c1NC(=O)Cn1nc(-c2cccs2)c2sc(N3CCCC3)nc2c1=O,-7,-4
CC1=NN(C(=O)c2ccc([N+](=O)[O-])cc2)C(O)(C(F)(F)F)C1 (stereo not drawn),6,8
O=C(CCc1cccc(F)c1)NC1CCCN(CCc2ccccc2)C1 (stereo not drawn),6,6
CC(C)C1C2=C(CC(C)(C)CC2=O)OC(=N)C1C#N (stereo not drawn),-1&7,-1&9
COCCN(CC(=O)Nc1cc(C(C)(C)C)nn1-c1ccc(Cl)c(Cl)c1)C(=O)Nc1ccc(Br)cc1,4,0
Cc1cnn(CCCNC(=O)NC(C)c2csc(C)n2)c1 (stereo not drawn),7,10

The results go on:
compound,NPYLR7 ag max-min,NPYLR7 ag
C=CC(C)(O)CNCc1nc(-c2ccc([N+](=O)[O-])cc2)no1 (stereo not drawn),38,29
Cc1ccccc1-c1ccc2nnc(-c3ccccn3)n2c1,-5,4
CCn1cc(C(=O)NCC2CCCO2)c2nn(-c3ccccc3)c(=O)c-2c1 (stereo not drawn),6,9
Nc1nccc(N2CCC(N3CCCC(C(=O)N4CCOCC4)C3)CC2)n1 (stereo not drawn),21,26
CCCc1nc(N2CCOC(CCOC)C2)c2cnn(C)c2n1 (stereo not drawn),1,2
O=C(c1cn(Cc2c(F)cccc2F)nn1)N1CCc2sccc2C1,1,4
Cc1cc(C(=O)N2C3CCC(O)(CC3)C2CN2CCOCC2)n(C)n1 (stereo not drawn),2,-8
Cc1ccc(N2C(=O)CSC2c2cccs2)cc1C (stereo not drawn),-7,-5
O=S1(=O)C=CC(N(c2ccc(Br)cc2)S(=O)(=O)c2ccc(F)cc2)C1 (stereo not drawn),13,3
CCN1C(=O)/C(=C2\SC(=S)N(CCCOC)C2=O)c2ccccc21,-12,-7
CC(C)CN(CC(=O)N1CC(=O)N(c2ccc(F)cc2)C1)C(=O)C(c1ccccc1)c1ccccc1,22,20
CC(C)CCC1(C2CCNCC2)NC(=O)N(CCN2CCCC2=O)C1=O (stereo not drawn),-3,0

(cont.)
compound,NPYLR7 ag max-min,NPYLR7 ag
COc1cccc(CN(C)C(C)c2ccc(F)cc2)c1OC (stereo not drawn),1,4
CC(C)NC(=O)C(C)N1CCN(c2ccccc2F)CC1 (stereo not drawn),3,4
CCn1cc(NC(=O)c2ccc(CN3CCCC3c3ccccn3)cc2)nn1 (stereo not drawn),-5,-1
Cn1c(=O)c2c(nc(Br)n2CCSc2nnnn2-c2ccccc2)n(C)c1=O,4,2
O=C(NC(C(=O)N1CCCC1)C1CCN(C(=O)c2ccco2)CC1)C1CC1 (stereo not drawn),27,29
